Vaccinia Venus – inhibitors of vaccinia virus (Venus reporter); Vaccinia virus Venus reporter expression, fluorescence; 330,000 tested, 0.46% active; Potency, µM (doses to about 36.5 µM), for inactives: at the top dose activity change, negative = inhibition, hits mostly inhibitors; AID 720580; active means well fitted inhibition curve with a large enough effect; inconclusive means small, poorly fitted or top-dose-only effect; inactive means no such curve, though single readings can be large or run the other way; tested in A549 cells; further: nearly all actives have a fitted effect of over 30% in size; inactives centre near -10
Vaccinia mCherry – vaccinia inhibition (mCherry reporter). Potency, µM (series often up to 36.5 µM), for the others: at the highest dose activity change, negative = inhibition, hits mostly inhibitors. 310,000 tested, 0.63% active. Vaccinia virus mCherry reporter infection, fluorescence; about a quarter of the inactives have no number; active = well fitted inhibition curve with a large enough effect; inconclusive = small, poorly fitted or top-dose-only effect; inactive = no such curve, though single readings can be large or run the other way; tested in A549 cells; further: nearly all actives have a fitted effect of over 35% in size; inactives centre near -10
Numbers without * were called inactive; i = inactive; ? = inconclusive; . = not tested or not shown; & = joins results of further samples; [ ] = remark or other dose. On the % scale 0 is the no-effect control and ±100 the full control effect; potency means the concentration at half of the fitted maximal effect. Rows were taken by chance (roughly 0.87% active in at least one column).

SMILES,Vaccinia Venus,Vaccinia mCherry
Cc1ccccc1C(=O)NC(=S)Nc1ccc(Oc2ccc(Cl)cc2)cc1,?,.
CC1=C(C(=O)OC2CCCC2)C(c2coc3ccccc3c2=O)C2=C(CCCC2=O)N1 (centres undefined),-10%,i
CCOC(=O)c1c(C)[nH]c(C)c1S(=O)(=O)N1CCC(C(=O)N2CCN(c3ccc(F)cc3)CC2)CC1,-25%,?
C[C@@H](NCCCn1cnc2c(OCc3ccccc3)ncnc21)c1cccc2ccccc12,?,?
CC(C)Nc1nc2ccccc2c(=O)[nH]1,-4%,3%
Nc1ccccc1SCC(=O)N1CCc2ccccc21,?,.
CCN1CCN(CC(c2ccccc2)c2ccccc2)CC1,-6%,-15%
Cc1cccc(CS(=O)(=O)Cc2ccc(C(=O)NCCN3CCCCC3C)o2)c1 (centres undefined),-5%,.

An excerpt of these results, as labelled records:
C[C@@H](NCCCn1cnc2c(OCc3ccccc3)ncnc21)c1cccc2ccccc12
  Vaccinia Venus = ? | Vaccinia mCherry = ?
CC(C)Nc1nc2ccccc2c(=O)[nH]1
  Vaccinia Venus = -4% | Vaccinia mCherry = 3%

(listing goes on)
SMILES,Vaccinia Venus,Vaccinia mCherry
CCOC(=O)[C@H]1CCC[C@@H](NS(=O)(=O)c2ccc(NC(C)=O)cc2)C1,-2%,.
Cc1cccc(C)c1OC(=O)Cc1ccccc1,8%,i
O=C(O)c1nccnc1C(=O)Nc1ccc(S(=O)(=O)N2CCOCC2)cc1,1%,i
COC(=O)c1sccc1NC(=O)/C=C/c1ccc(Cl)cc1,-1%,-11%
Cc1ccc(NC(=O)c2ncn(CCCNCCCc3ccccc3)n2)cc1C,?,-13%
COc1ccc(NC(=O)CN2CCC(C)CC2)cc1,-9%,-13%
CCN1CCN(c2cc(N3CCc4ccccc4C3)c(F)cc2[N+](=O)[O-])CC1,?,-15%
COc1ccc(C(=O)NCCc2nnc(SCc3nc4ccccc4c(=O)[nH]3)n2C)cc1,-20%,.

SMILES,Vaccinia Venus,Vaccinia mCherry
Cc1oc(-c2ccccc2F)nc1CSCC(=O)N1CCN(c2ccccc2)CC1,-29%,-26%
Cc1ccc(CCC(=O)Nc2nccs2)o1,-3%,-5%
Cc1cc(NC(=O)COC(=O)c2ccc(NS(=O)(=O)c3ccc(C)c(C)c3)cc2)no1,-27%,-2%[1.46 µM]
Cc1cc(=O)n2nc(N3CCC(C(=O)Nc4c(C)cccc4C)CC3)sc2n1,-4%,-9%
COc1ccc(C2CN(C)CC2C(=O)c2ccc(F)cc2)cc1Cl (centres undefined),-9%,-5%
COc1ccc(C)cc1NC(=O)Cn1cc(S(=O)(=O)N2CCC(C)CC2)c2ccccc2c1=O,-13%,-22%
Cc1c(C(=O)NCCN(C)C)oc2ccc(S(=O)(=O)N3CCCC3)cc12,-6%,i
N#Cc1ccsc1NC(=O)CN1CCCCCC1,-2%,i

SMILES,Vaccinia Venus,Vaccinia mCherry
O=C(CN1CC(c2ccccc2)CC1=O)Nc1cccc(F)c1 (centres undefined),-11%,-3%
Cc1cc(S(=O)(=O)Nc2ccc(C(=O)NCCCn3ccnc3)cc2)ccc1F,-6%,i
Cc1ccc(CNC(=O)COC(=O)CCC(=O)c2cccs2)cc1,-6%,-2%
CC1(C)Cc2c(c(N3CCOCC3)nc3sc(C(=O)Nc4ccc(Cl)cc4)c(N)c23)CO1,9%&-29%,-18%&-22%
COc1ccc(Cl)cc1NC(=O)c1c(NCc2cccs2)sc2c1CCC(C)C2 (centres undefined),-7%,-4%
O=C(Nc1nccs1)c1c(O)c2c([nH]c1=O)CCCC2,-4%,i
COc1ccc([C@@H]2C=C(C(=O)O)O[C@H](OCCCCO)C2)cc1,12%,-4%
CCOC(=O)c1ccccc1NC(=O)c1sc2nc(-c3ccc(F)cc3)cn2c1C,-10%,-12%

SMILES,Vaccinia Venus,Vaccinia mCherry
Cc1nc(N2CCCC2)c2c(C(=O)Nc3cccc(C)c3C)c(C)oc2n1,-7%,i
COCc1nc2ccccc2n1Cc1ccc(C(C)(C)C)cc1,-18%,-13%
Nc1cc(=O)nc(SCC(=O)Nc2cccc(Cl)c2)n1CCc1ccccc1,-2%,-11%
O=C(Nc1nc(-c2ccc(S(=O)(=O)N3CCCC3)cc2)cs1)c1ccco1,-22%,?
CCS(=O)CCSP(=O)(OC)OC (centres undefined),-2%,-9%
CC(C)Oc1ccc(/C=C(/NC(=O)c2ccccc2)C(=O)NCCC(=O)O)cc1,-8%,-25%
N#CCSC1=Nc2ccccc2C2=NC(CCC(=O)N3CCN(c4ccccc4)CC3)C(=O)N12 (centres undefined),-27%,-10%
CC(C)C(=O)Nc1cccc(NC2=NS(=O)(=O)c3ccccc32)c1,5%,10%

SMILES,Vaccinia Venus,Vaccinia mCherry
Cc1ccc(-c2cnc(SCC(=O)N3CCCc4ccccc43)n2C)cc1,-18%,-26%
COc1ccc(CNc2c(CO)cnc3c2cnn3C)cc1,-21%,0%
O=C(COC(=O)c1cccc(S(=O)(=O)N2CCc3ccccc32)c1)Nc1ncc(C(F)(F)F)cc1Cl,-8%,-3%
CCOC(=O)CN1C(=O)N[C@@H](c2ccco2)C(C(=O)OC)=C1C,-7%,i
CCc1cccc(N(C(=O)c2csnn2)C(C(=O)NC(C)(C)C)c2ccncc2)c1 (centres undefined),1%,-9%
Cc1ccc(C(=O)Nc2ccc(S(=O)(=O)N3CCOCC3)cc2)cc1,-22%,-22%
COCC(=O)N(c1ccc(C(C)C)cc1)C1C=CS(=O)(=O)C1 (centres undefined),-5%,-9%
COC(=O)CN1C(=O)[C@H]2[C@@H](/C=C/c3ccccc3)N3C(=O)CN(Cc4ccc(-c5ccccc5)cc4)C(=O)[C@@]3(C)[C@H]2C1=O,-27%,-18%

SMILES,Vaccinia Venus,Vaccinia mCherry
O=C(CCC(=O)n1ncc2ccccc21)NCc1ccc(F)cc1,-2%,i
O=C(CCSCc1ccccc1F)NCc1cccnc1,-5%,i
COc1ccc(N(CC(=O)N2CCN(c3cccc(C)c3)C(C)C2)S(=O)(=O)c2c(C)n[nH]c2C)cc1 (centres undefined),-18%,i
COc1ccccc1N1C(=O)CC1(C#N)c1ccc(OCc2ccccc2)cc1 (centres undefined),-8%,i
CCc1cccc(NC(=O)c2cnc(N3CCOCC3)c3ccccc23)c1,-25%,-18%
C[C@H](NC(=O)c1nc[nH]c1C(=O)NC(c1ccccc1)c1ccccc1)C(=O)OCc1ccccc1,-14%,-15%
CCCOc1ccc(CCC(=O)N/N=C/c2ccco2)cc1,-11%,-13%
S=C1CCC(c2ccc(Cl)cc2)=NN1c1ccccc1,-6%,-19%

Entries of single compounds from above:
Record of O=C(CCC(=O)n1ncc2ccccc21)NCc1ccc(F)cc1 = Vaccinia Venus = -2%; Vaccinia mCherry = i
Record of S=C1CCC(c2ccc(Cl)cc2)=NN1c1ccccc1 = Vaccinia Venus = -6%; Vaccinia mCherry = -19%

The results go on.
SMILES,Vaccinia Venus,Vaccinia mCherry
COc1ccccc1-n1c(SCC(=O)Nc2ccc(F)cc2)nc2c(c1=O)SCC2,-9%,i
CCOC(=O)C1(CC2CCCCO2)CCN(Cc2nc3ccccc3nc2C)CC1 (centres undefined),-1%,?
COC(=O)Nc1ccc(S(=O)(=O)NCc2ccccn2)cc1,-11%,i
CCCNC(=O)N1C2CCC1CC(O)(c1cccnc1)C2 (centres undefined),-9%,i
CC1CC(C)CN(C(=O)CN(C)S(=O)(=O)c2ccc3c(c2)c(=O)n(C)c(=O)n3C)C1 (centres undefined),-14%,i
Cc1cc(C)nc(N/N=C/c2ccccc2OCc2ccc(Cl)cc2)n1,-22%,-16%
COC(=O)Cn1cnc2c(nnn2-c2ccc(F)cc2)c1=O,0%,i
CN(C)CCCCOc1ccc(Br)cc1Cl,-2%,-3%

SMILES,Vaccinia Venus,Vaccinia mCherry
Cc1oc(C(C)(C)C)c(CN2CCOCC2)c1C(=O)O,-9%,-5%
Cc1ccc(-c2nc3ccccc3c(=O)n2NC(=O)c2cccs2)cc1,-15%,-11%
CCCC(=O)N(C)C1=Nc2ccc(Cl)cc2C(c2ccccc2)=[N+]([O-])C1,-15%,i
CSCCC(NC(=O)c1ccc([N+](=O)[O-])cc1Cl)C(=O)OCC(=O)NC(=O)CN1CCCC1=O (centres undefined),-9%,-17%
CCc1ccc(C(=O)C(C)OC(=O)Cn2cnc3c2c(=O)n(C)c(=O)n3C)cc1 (centres undefined),-17%,-19%
CC1CCN(S(=O)(=O)c2ccc(NC(=O)N3c4ccccc4Sc4ccccc43)cc2)CC1,-12%,0%
Cc1cccc(Cc2c(C)nc3nc(SCC(=O)NCc4ccc(F)cc4)nn3c2C)c1,-28%,-29%
C[n+]1ccnc2ccccc21,2.2µM*,7.9µM*

SMILES,Vaccinia Venus,Vaccinia mCherry
Cc1nnc(SCc2cnc(-c3ccccc3)o2)[nH]c1=O,-10%,-10%
C=CCNC(=O)c1ccncc1,-5%,-7%
Clc1ccc(-c2csc(=Nc3cccnc3)n2CCCn2ccnc2)cc1Cl,?,?
Clc1ccc(Cn2c(-c3cccnc3Cl)nc3ccccc32)cc1,-19%,-19%
CCN1C(=O)CC(c2ccc(OC(C)C)cc2)C1=O (centres undefined),-7%,-6%
O=C(O)C(=Cc1ccccc1)Cc1ccccc1,-8%,-5%
O=c1c(-c2ccccc2)nc2ccccc2n1C(CCc1ccccc1)c1nc2ccccc2[nH]1 (centres undefined),15%,i
CCOC(=O)c1cnc(SCc2nc(N)nc(Nc3ccccc3)n2)nc1N,-17%,-7%

SMILES,Vaccinia Venus,Vaccinia mCherry
CCN(CC)S(=O)(=O)c1ccc2c(c1)nc(CN(C)C(=O)Nc1ccc(F)cc1)n2C,-16%,-5%
COc1ccccc1-c1cc2c(c3c1ccn3C)C1CCC2O1 (centres undefined),2%,26%
Cc1nnc(NCc2ccc(Cl)cc2)c2c1nnn2Cc1ccc(F)cc1,-20%,-22%
Oc1ccc(F)cc1-c1cc(-c2ccc3c(c2)OCCO3)n[nH]1,-28%,?
CN(C/C=C/c1ccccc1)C1CCCCC1,-14%,-10%
CCCNC(=O)C1(C)CCCN(Cc2ccccc2-c2ccccc2)C1 (centres undefined),3%,0%
CCCCC(=O)Nc1ccc(N2CCN(c3ccc(F)cc3)CC2)cc1,2%,i
CCCCN(Cc1ccco1)S(=O)(=O)c1c[nH]c(C(=O)OC)c1,10%[7.34 µM],14%[7.34 µM]

SMILES,Vaccinia Venus,Vaccinia mCherry
CCOC(=O)C1=CCC(c2ccccc2)N(S(=O)(=O)c2ccccc2[N+](=O)[O-])C1 (centres undefined),-12%,28%
O=C(COC(=O)/C=C/c1ccco1)Nc1cccc([N+](=O)[O-])c1,-8%,-14%
CC(=O)N/C(=C\c1ccccc1)C(=O)NC(C)C(=O)O (centres undefined),-5%,i
Cc1cc(C)n(-c2ccc(C(=O)NC(C)C)cc2)n1,-10%,-18%
CC(C)(OC(=O)c1ccc(C(F)(F)F)cc1)c1cc2ccccc2c(=O)o1,-11%,i
Cc1cc(N2CCOCC2)nc(-c2ccc([N+](=O)[O-])cc2)n1,-12%,-2%
Cc1cc(Cl)ccc1OCC(=O)N(Cc1ccc(N(C)C)cc1)C1CCS(=O)(=O)C1 (centres undefined),-17%,-10%
O=C(N/N=C/c1cc2c(cc1Cl)OCO2)c1ccncc1,1%,-13%

SMILES,Vaccinia Venus,Vaccinia mCherry
Oc1ccccc1-c1nnc(-c2ccc(C(F)(F)F)cc2)o1,-6%,-12%
CC1(OC(=O)C2CCCC2)C(=O)C=C2C=C(c3ccsc3)N(C(CO)CO)C=C2C1=O (centres undefined),-8%,-6%
CC(=O)c1cccc(NC(=O)C2CCCN(S(=O)(=O)c3ccccc3)C2)c1 (centres undefined),-1%,-11%
O=C(Cn1nnc(-c2ccccc2)n1)N/N=C/c1ccco1,-9%,-10%
Cc1ccccc1Oc1nc2ccccn2c(=O)c1/C=C(\C#N)C(=O)Nc1c(C)n(C)n(-c2ccccc2)c1=O,-13%,i
COc1ncnc2sc(-c3ccccc3)cc12,-6%,-17%
CCc1nc2c(OCCOc3ccccc3)cccn2c1N(C)C(=O)C1CC1,-6%,37%[activator]
O=C(NCc1cc([N+](=O)[O-])ccc1O)c1cccnc1Sc1ccc(Cl)cc1,-20%,-8%

SMILES,Vaccinia Venus,Vaccinia mCherry
COC(=O)CCSc1nc(N2CCOCC2)c2c(c1C#N)CC(C)(C)OC2,-13%,-13%
CCCCCn1c(CCCNC(=O)c2ccccc2OC)nc2ccccc21,1%,-16%
Cc1cccc(-c2noc(CN(C3CCCCC3)S(=O)(=O)c3ccc(F)cc3)n2)c1,-9%,-4%
CCOC(=O)N/N=C/c1c(F)cccc1F,-3%,i
Cc1cc(CCNC=O)c(C)c2c1oc1ccccc12,-7%,-23%
CC(C)CNC(=O)COC(=O)c1cc(S(=O)(=O)N(C)C)ccc1N1CCCC1,-5%,-8%
CCOC(=O)C1(CCCc2ccccc2)CCN(S(=O)(=O)N(C)C)CC1,-10%,i
Cc1c(NC(=O)Nc2c(Cl)cccc2Cl)c(=O)n(-c2ccccc2)n1C,-1%,i
CC(=O)c1cccc(CN2CCCCC2C(=O)Nc2ccc(Oc3ccccc3)nc2)c1 (centres undefined),-24%,-29%
CCOc1ccc(CNC(=O)CN2N=C(c3ccccc3)CCC2=O)cc1OC,0%,-8%

Assay outcomes: PubChem, National Center for Advancing Translational Sciences (NCATS)
